RanGTP-Imp inh – disruptors of Ran-importin-beta complex formation – biochemical, FRET, CFP-Ran, YFP-importin-beta, homogeneous, primary screen | 300,000 tested, 1.1% active | AID 2216 | inhibition, % (concentration not given with the values) | cell-free CFP-Ran/YFP-importin-beta FRET ratio;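 active = most replicates above 15%; inconclusive = exactly half above 15%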;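 note: 0% = DMSO wells and 100% = Ran loaded with GDP instead of GTP; wells of about 40 µL received 100 nL stock; the first replicate is given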
ALR H2O2 inh – blocks human ALR sulfhydryl oxidase activity. P55789. purified ALR, DTT oxidation, H2O2 HRP-luminol luminescence. inhibition, % (concentration not given with the values). 290,000 tested, 3.8% active;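 active = mean and each replicate at 75% or more; inconclusive = only one of the two met; inactive = neither met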;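 note: stock transfer was 7.5 nL into about 7.5 µL; 0% = neutral wells and 100% = wells with inactivated enzyme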
Calb FLC – C. albicans growth modulation with fluconazole; C. albicans CaCi-2 (fluconazole-resistant clinical isolate) + fluconazole, Alamar Blue growth, 48 h; growth inhibition, % (test concentration not listed); 300,000 tested, 0.57% active; AID 1979;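 active = most replicates above 75%; inconclusive = exactly half above 75%; inactive = most below 75%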;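 note: all wells also contain fluconazole at 8 µg/ml as a sub-toxic cotreatment; 0% = median of DMSO wells and 100% = median of geldanamycin control wells; wells of about 8 µL received 7.5 nL stock; the first replicate is given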
HNF4A DNA FP – change in binding of human HNF4 alpha to DNA. AID 1224865. 360,000 tested, 0.3% active. activity change, % at 10 µM. HNF4a-FITC DNA binding, fluorescence polarization, 1 h; in the data active = activity change above about 30%, passing the limit was not always enough;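 note: controls were the assay level and a saturating level of protein; the project sought stronger binding though the title names inhibitors; some compounds called inactive have numbers as strong as hits; positive values seem to mean higher polarization but the record does not say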
Beta2AR agonist – activates human beta-2 adrenergic receptor causing internalization; P07550; Am2.2-beta2AR cells, FAP receptor internalization, flow cytometry; reference of the scale not given here; response, % (concentration not given with the values); 340,000 tested, 0.43% active;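 active = response above a set limit, near 3 SD of response in nonfluorescent compounds, cut at about 42% in these data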;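 note: stock transfer was 100 nL into about 11 µL; a reference agonist was the positive control; negative values mostly stem from fluorescent compounds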
Vif A3G – inhibitors of Vif binding to APOBEC3G peptide, primary screen, biochemical, TR-FRET, GST-Vif 1-94, biotin-A3G peptide, dose response retest (AID 1117319); TR-FRET GST-Vif / biotin-A3G peptide binding; higher % means a stronger effect; test concentration not given here; strong numbers were not always called active; inhibition, %, or IC50 in µM where a hit was titrated; 260,000 tested, 0.57% active;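 active = above the screen mean plus three standard deviations and confirmed in dose response; inconclusive = results disagree or hit not tested in dose response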;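 note: Vif residues 1-94 fused to GST binding biotinylated APOBEC3G peptide 110-148; 0% = full assay without inhibitor and 100% = GST in place of GST-Vif; retest series ran down from 100 µM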
LANA-H2A inh – blocks KSHV LANA binding to histone H2A/H2B. inhibition, % (concentration not given with the values). cell-free LANA-H2A/H2B peptide, fluorescence polarization. 320,000 tested, 0.6% active; in the data active = inhibition mostly above about 10%, no sharp cut-off; inactive = mostly below about 6.7%;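 note: stock transfer was 7.5 nL into about 10 µL; 0% = median of vehicle wells and 100% = median of positive control wells; one replicate is shown; the record names a cut of 25% in any replicate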
Target sequence (Q9QR71 whole entry, looked up): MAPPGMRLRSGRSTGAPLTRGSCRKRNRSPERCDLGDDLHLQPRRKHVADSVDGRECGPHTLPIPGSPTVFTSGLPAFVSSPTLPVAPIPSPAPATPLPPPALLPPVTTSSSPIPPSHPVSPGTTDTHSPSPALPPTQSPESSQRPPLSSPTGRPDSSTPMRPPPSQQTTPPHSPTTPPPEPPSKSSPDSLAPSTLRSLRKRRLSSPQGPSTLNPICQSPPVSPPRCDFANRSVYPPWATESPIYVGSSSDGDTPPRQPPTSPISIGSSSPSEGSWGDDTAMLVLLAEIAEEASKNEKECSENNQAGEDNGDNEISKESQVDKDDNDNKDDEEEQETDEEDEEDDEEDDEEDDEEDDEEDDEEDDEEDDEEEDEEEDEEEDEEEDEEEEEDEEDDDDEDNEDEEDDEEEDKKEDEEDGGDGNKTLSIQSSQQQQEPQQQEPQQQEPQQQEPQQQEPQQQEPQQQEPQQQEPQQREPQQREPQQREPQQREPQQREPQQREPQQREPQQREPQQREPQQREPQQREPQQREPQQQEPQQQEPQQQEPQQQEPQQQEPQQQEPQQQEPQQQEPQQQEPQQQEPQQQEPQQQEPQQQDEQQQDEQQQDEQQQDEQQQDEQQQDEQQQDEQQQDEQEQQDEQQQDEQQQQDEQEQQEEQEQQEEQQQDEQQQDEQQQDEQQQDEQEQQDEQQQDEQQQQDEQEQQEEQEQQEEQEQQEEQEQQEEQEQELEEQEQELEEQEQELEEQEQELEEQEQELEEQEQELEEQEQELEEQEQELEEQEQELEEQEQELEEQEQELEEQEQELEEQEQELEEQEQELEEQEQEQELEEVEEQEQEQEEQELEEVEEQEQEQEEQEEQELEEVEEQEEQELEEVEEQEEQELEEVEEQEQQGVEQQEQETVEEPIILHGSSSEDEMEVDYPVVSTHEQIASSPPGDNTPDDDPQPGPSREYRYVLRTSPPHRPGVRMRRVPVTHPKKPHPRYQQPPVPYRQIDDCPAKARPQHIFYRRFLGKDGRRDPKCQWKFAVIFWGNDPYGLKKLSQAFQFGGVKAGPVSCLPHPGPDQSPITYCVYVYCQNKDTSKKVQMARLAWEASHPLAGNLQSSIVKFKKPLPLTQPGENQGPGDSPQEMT
* hit, by the source's call; i = inactive; ? = inconclusive; / = no result given; & = joins results of further samples.

SMILES	RanGTP-Imp inh	ALR H2O2 inh	Calb FLC	HNF4A DNA FP	Beta2AR agonist	Vif A3G	LANA-H2A inh
O=C(c1ccc(S(=O)(=O)Cc2cc(F)ccc2F)c([N+](=O)[O-])c1)N1CCCCC1	1.3	10	-5	0.5	-13	/	1.8
O=C(NC(c1ccccc1)c1ccccc1)C1(c2cccs2)CCOCC1	-5.1	-3	12	6.9	-1	0%	6.4
CCCN(CCO)CCCc1ccccc1	3.4	-5	12	-4.2	-15	-6%	2.9
CCOc1cc(C(c2c(C)[nH][nH]c2=O)c2c(C)[nH][nH]c2=O)ccc1OS(=O)(=O)c1ccc(C)cc1	4.6	13	-34	12	6	?	2.7
Cc1cccc(Sc2c([N+](=O)[O-])ncn2C)c1	0.1	98*	30	3.5	7	?	-2.1
COc1ccc(-c2sc3ccccc3c2C#Cc2cncn2C)cc1	/	-3	/	-1.3	10	/	-2.8
CCOc1ccccc1NC(=O)COC(=O)CC(NC(N)=O)c1ccc(Cl)cc1 (centres undefined)	-3.3	9	6	4.2	-23	/	-0.3
O=C(CCc1nc2ccccc2c(=O)[nH]1)Nc1ccc(F)c([N+](=O)[O-])c1	1.9	-6	3	-3.3	7	20%	3.9
O=[N+]([O-])c1cc(-c2ccc(/C=N/c3nc4ccccn4c3-c3ccco3)o2)ccc1Cl	9.6	/	1	-4.0	7	10µM*	6.1
COc1ccc(CNc2ccncc2)c(OC)c1OC	/	/	/	-2.7	2	0%	/
c1ccc(-n2cc(CNCCc3cscn3)c(-c3ccc4c(c3)OCO4)n2)cc1	-0.9	-1	-34	3.5	-12	33%	1.0
CCc1ccc(NC(=O)CSc2nc3ccsc3c(=O)n2CCC(=O)O)cc1	4.1	2	0	4.8	-8	/	0.8

An excerpt from above in order of the Beta2AR agonist value, descending:
| SMILES | Beta2AR agonist |
| --- | --- |
| O=C(NC(c1ccccc1)c1ccccc1)C1(c2cccs2)CCOCC1 | -1 |
| c1ccc(-n2cc(CNCCc3cscn3)c(-c3ccc4c(c3)OCO4)n2)cc1 | -12 |
| CCCN(CCO)CCCc1ccccc1 | -15 |

More structures.
SMILES	RanGTP-Imp inh	ALR H2O2 inh	Calb FLC	HNF4A DNA FP	Beta2AR agonist	Vif A3G	LANA-H2A inh
O=C(/C=C/c1c(Cl)cccc1Cl)NCCc1ccccc1	0.9	-11	-9	4.6	0	13%	-1.9
CCOC(=O)c1sc(NC(=O)CSc2nnc(-c3ccc(OC)cc3)n2CCOC)nc1C	-2.4	-4	-10	2.8	-3	9%&-2%	4.1
COc1cc(C(=O)NCC(C)(C)CNC(=O)c2cc(OC)c(OC)c(OC)c2)cc(OC)c1OC	-1.9	0	-16	-1.7	4	/	1.8
Cc1ccc(-c2cc(C(F)(F)F)c(C#N)c(=O)[nH]2)cc1	2.0	0	?	1.2	-4	-3%	-7.6
COc1ccc(NC(=O)Nc2nnc(Cc3ccc(F)cc3)s2)cc1	-0.7	-25	-1	16	7	0%	0.1
O=C(NN1C(=O)C2C3C=CC(C4CC34)C2C1=O)c1ccccc1Cl (centres undefined)	?	1	4	-0.1	2	?	5.4
COc1ccccc1C(=O)Nc1nc(-c2cccs2)c(NC(C)=O)s1	1.8	-9	-25	2.5	-14	-1%	1.7
N#Cc1ccccc1OCC(=O)NNC(=O)CCNC(=O)c1ccccc1	/	-10	/	1.6	2	/	0.2
Cc1cc(-c2nc(C)c(C(=O)NNS(=O)(=O)c3cccc(C(F)(F)F)c3)s2)no1	3.2	5	12	0.6	0	-4%	-0.1
COc1ccc(Cc2nc3ccc(C(=O)NCCn4cccn4)cc3o2)cc1	4.9	-3	13	-0.2	-5	/	-5.2
COc1ccc(O[C@H]2C=C[C@@H](c3ccccc3)O[C@@H]2COC(=O)CC/C(C)=N/O[C@@H](C)c2cc(-c3c(C)cc(C)cc3C)no2)cc1	6.6	/	-6	/	/	21%	/
Cn1c(=O)c(Oc2cc(Cl)cc(Cl)c2)nc2ccccc21	-0.6	98*	-8	-0.2	-6	11%	-1.9
COC(=O)c1ccc2c(=O)[nH]c(CSc3nc(C)cs3)nc2c1	2.3	1	0	-1.1	2	0%	-4.3
CCOC(=O)C1CCN(C(=O)Nc2ccc(NC(=O)C3CCN(C(=O)OCC)CC3)cc2)CC1	-3.5	4	-1	3.4	3	12%	4.8
COc1ccc(OC)c(-c2csc3nnc(SCC(=O)Nc4ccc(NC(C)=O)cc4)n23)c1	3.7	-5	-2	0.3	1	14%&-10%	1.2
Cc1ccc2[nH]c(=O)c(CN(CCc3ccccc3)Cc3nnnn3CC3CCCO3)cc2c1 (centres undefined)	-3.7	-6	?	0.9	-4	15%	-1.1
CCOC(=O)C1CCN(C(=O)C2CCN(c3nnc(-n4cccc4)s3)CC2)CC1	0.5	-3	15	-2.3	1	/	3.1
CCOC(=O)c1sc(NC(=O)c2cccc(S(=O)(=O)N3c4ccccc4CC3C)c2)cc1C (centres undefined)	5.7	/	9	0.3	6	?	3.6
CC(C)CNC(=O)NC(=O)COC(=O)c1ccccc1Sc1ccc(C(F)(F)F)cc1[N+](=O)[O-]	?	-5	-3	-3.5	10	6%	3.6
CCCNC(=O)c1ccc(N2CCC3(CC2)CC(c2ccccc2)=NO3)c(NC(=O)Cc2ccc(F)cc2)c1	8.0	0	10	5.2	4	/	0.9
O=C(NNC(=O)c1cc(-c2ccccc2)n(-c2ccccc2)n1)c1cccc([N+](=O)[O-])c1	2.8	-2	24	-0.7	0	8%	-0.2
CCOC(=O)Cn1c2c(c(=N)c3c1CCC3)CCC2	-2.4	6	11	-3.4	-5	18%	3.7
O=c1[nH][nH]c2cc([N+](=O)[O-])ccc12	/	/	/	-6.1	11	9%	/
Cc1cccc(-n2c(SCC(=O)N3CCCC3)nnc2-c2ccccn2)c1C	0.9	-2	0	-0.4	-11	-5%	-0.8
Cc1ccc(/C=N\NC(=O)c2ccc3c(c2)OCO3)o1	?	2	1	3.6	11	6%	-1.6
CCC(C)(C(=O)NC1CCCC1)N(C(=O)Cc1cccs1)c1c(C)n(C)n(-c2ccccc2)c1=O (centres undefined)	0.8	-10	-3	1.7	4	/	-1.3
Cc1cccc(NC(=O)CCCN2C(=O)C(c3ccccc3)Oc3cccnc32)c1C (centres undefined)	6.0	4	9	0.2	6	/	-1.2
COc1ccc(N2CCN(C(=O)C3CCN(S(=O)(=O)N4CCOCC4)CC3)CC2)cc1	/	/	/	1.4	1	?	/
COc1ccc(S(=O)(=O)N2CCCC(C(=O)O)C2)cc1 (centres undefined)	2.0	-5	-3	-2.9	-2	9%	5.6
CC(=O)NC(c1cc(Cl)c2cccnc2c1O)C1CC1 (centres undefined)	/	30	/	3.3	3	/	3.7
CN1/C(=c2/s/c(=C3/C(=O)N(c4ccccc4)NC3=Nc3ccccc3)n(C)c2=O)C(C)(C)c2ccccc21	-34	/	-3	66*	-151	-3%&3%	-4.5
O=C(COC(=O)CCCC1=NS(=O)(=O)c2ccccc2N1)Nc1ccc(Br)cc1	3.8	-9	8	-2.6	0	/	0.2
CN(CC(=O)N1CCN(c2ccccn2)CC1)S(=O)(=O)c1ccc(Cl)cc1	2.8	2	8	-5.1	110*	/	-8.6
Clc1ccc2c(c1)Nc1ccccc1CC2	1.2	46	-16	3.1	6	/	-4.5
COc1ccc(-n2c(C)c(C(=O)O)c3cc(OC)c4ccccc4c32)cc1	-3.9	-9	3	-4.1	15	-8%	4.6
COc1ccccc1NC(=O)c1cc(S(=O)(=O)N2CCC3(CC2)OCCO3)ccc1F	6.4	-3	-31	1.4	-5	-9%&-2%	-0.7
COC(=O)c1ccc(N2CCN(CC(=O)c3ccc(C)cc3)CC2)c([N+](=O)[O-])c1	-1.3	-2	2	4.5	11	/	-1.5
O=C(c1coc(=O)c(Br)c1)N1CCOCC1	2.0	/	-15	-5.3	-2	24%	/
Cc1cccc(C)c1NC(=O)CNC(=O)c1c(C)nn(-c2ccccc2)c1C	?	/	0	-0.1	-8	0%	/
CC1CCCCC12NC(=O)N(CC(=O)OCc1ccc(Br)cc1)C2=O (centres undefined)	/	8	/	3.1	4	/	-1.3
O=C(NCc1ccco1)c1nn2c(C(F)(F)F)cc(-c3cccs3)nc2c1Cl	-0.8	0	-13	6.5	-3	0%	1.0
Cc1cc(C)n2nc(SCCOc3ccccc3F)nc2n1	0.8	2	8	4.3	-21	-2%	-2.7
COc1cccc(-c2[nH]nc3c2C(c2ccsc2)C(C#N)=C(N)O3)c1 (centres undefined)	8.0	-1	32	-12	0	11%	0.4
CN1CCc2c(sc(NC(=O)C3CCCCC3)c2C(N)=O)C1	147*	/	-4	-0.9	-1	/	6.0
CCCC(=O)NC(=S)N1CCN(c2ccc([N+](=O)[O-])cc2)CC1	-3.9	0	?	-2.2	-3	-8%	-7.6
Nc1nc(Cl)nc2c1ncn2[C@H]1C[C@H](O)[C@@H](CO)O1	-0.9	3	/	1.9	-6	?	0.5
CCN(C(=O)CSc1ccccn1)C1CCCCC1	/	-10	/	-0.9	-11	/	-1.2
COc1cccc(NC(=S)N(CCCN2CCOCC2)C(C)c2cc3ccccc3o2)c1 (centres undefined)	0.0	-1	-1	-1.7	-14	17%	0.6
O=C(NCCc1c[nH]c2ccccc12)OCCSS(=O)(=O)O	0.4	53	-7	-4.1	1	5%	-3.9
Cc1ccc(NC(=O)COc2ccccc2[N+](=O)[O-])nc1	-3.9	-3	-7	-0.6	-5	/	0.6
Cc1nc2c(cc1NC(=O)C(C)(C)C)nc(C)n2Cc1ccccc1	1.8	-10	-3	-2.0	0	/	1.1
CCOc1ccc(-c2c(C(=O)N/N=C/c3ccccc3)nnn2-c2nonc2N)cc1	-0.7	4	-5	-5.5	-3	14%	0.3
O=C(COC(=O)Cc1c(F)cccc1Cl)NC1CCS(=O)(=O)C1 (centres undefined)	4.9	-3	-6	-1.3	1	-2%	3.3
CN(CC(=O)Nc1cccc(F)c1)CC(=O)Nc1cccc([N+](=O)[O-])c1	0.1	-28	-10	-0.2	-3	1%	2.9
C=CCN(C(=O)CCC(=O)Nc1cc(C)on1)C(C(=O)NC1CCCC1)c1ccc(OC)c(OC)c1 (centres undefined)	6.0	-3	6	-3.0	2	/	0.8
COC(=O)c1ccc(C)c(NC(=O)c2nn(C)c(=O)c3ccccc23)c1	-1.3	0	-16	3.7	6	0%	4.8
C/C(=N\NC(=O)c1c(Cl)c(C)nn1C)c1ccc(NC(=O)C2CCC2)cc1	4.6	-2	3	6.3	-6	/	-0.6
Cc1cccc(-n2ncc3c(NCc4ccco4)ncnc32)c1	0.4	1	-2	-1.2	-7	?	-4.3
O=C1OCCN1C(=O)[C@H]1[C@H](c2ccccc2)C(c2ccc(F)cc2)=NN1c1ccccc1	/	/	/	5.8	12	5%	/
CCN(CC)c1ccc(/C=C(\C#N)C(=O)c2ccc(Br)cc2)cc1	-115	/	-3	-91	i	-8%	-15

Going on with the list:
SMILES	RanGTP-Imp inh	ALR H2O2 inh	Calb FLC	HNF4A DNA FP	Beta2AR agonist	Vif A3G	LANA-H2A inh
O=C(Cc1n[nH]c(=O)c2ccccc12)NC(c1ccccc1)c1ccccc1	-2.0	-7	-3	0.2	-1	/	-1.5
CCCCOC(=O)n1c(=O)oc2ccc(S(=O)(=O)N3CCCCC3)cc21	0.4	12	-3	1.2	2	-6%	4.5
COc1ccc(C2(C)NC(=O)N(CC3CCCCC3)C2=O)cc1 (centres undefined)	-1.3	/	-17	4.3	-1	/	-6.4
O=C(Nc1ccc(Oc2ccccc2)cc1)C1CCCO1 (centres undefined)	-1.5	0	-1	-4.0	-25	24%	-1.1
Cc1ccc(Cl)cc1N1CCN(S(=O)(=O)c2c(C(=O)N3CCOCC3)c(C)n(C)c2C)CC1	8.0	-1	22	2.9	5	6%	-4.0
C=CCNC(=S)Nc1ccc(N2CCOCC2)c(S(=O)(=O)Nc2ccccc2Cl)c1	-4.5	2	-2	-2.4	-6	-4%	-6.4

Compound activity deposited in PubChem BioAssay by several laboratories.

Rows were taken by chance. About 6.3% of those tested had a hit in this group.
